# Rango-impB inh: qHTS Assay for Inhibitors of Rango (Ran-regulated importin-beta cargo) - Importin beta complex formation. Potency, µM (top dose mostly 92.2 µM), for inactives: at the top dose inhibition of complex formation. Rango CFP/YFP FRET sensor + importin beta, 45 min. Importin subunit beta-1 (Homo sapiens), Q14974. hit rate 0.031% among 340,000. AID 540263, 2011; active = rising FRET ratio curve, often small or poorly fitted; inconclusive = mostly compound fluorescence or quenching in the first reads; inactive = flat curves in all reads;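 further: potency means the concentration at half of the fitted maximal effect; 0% = DMSO wells and 100% = buffer wells lacking importin beta; nearly all actives have a fitted effect of over 15% in size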
# Target sequence (Q14974 whole entry, looked up): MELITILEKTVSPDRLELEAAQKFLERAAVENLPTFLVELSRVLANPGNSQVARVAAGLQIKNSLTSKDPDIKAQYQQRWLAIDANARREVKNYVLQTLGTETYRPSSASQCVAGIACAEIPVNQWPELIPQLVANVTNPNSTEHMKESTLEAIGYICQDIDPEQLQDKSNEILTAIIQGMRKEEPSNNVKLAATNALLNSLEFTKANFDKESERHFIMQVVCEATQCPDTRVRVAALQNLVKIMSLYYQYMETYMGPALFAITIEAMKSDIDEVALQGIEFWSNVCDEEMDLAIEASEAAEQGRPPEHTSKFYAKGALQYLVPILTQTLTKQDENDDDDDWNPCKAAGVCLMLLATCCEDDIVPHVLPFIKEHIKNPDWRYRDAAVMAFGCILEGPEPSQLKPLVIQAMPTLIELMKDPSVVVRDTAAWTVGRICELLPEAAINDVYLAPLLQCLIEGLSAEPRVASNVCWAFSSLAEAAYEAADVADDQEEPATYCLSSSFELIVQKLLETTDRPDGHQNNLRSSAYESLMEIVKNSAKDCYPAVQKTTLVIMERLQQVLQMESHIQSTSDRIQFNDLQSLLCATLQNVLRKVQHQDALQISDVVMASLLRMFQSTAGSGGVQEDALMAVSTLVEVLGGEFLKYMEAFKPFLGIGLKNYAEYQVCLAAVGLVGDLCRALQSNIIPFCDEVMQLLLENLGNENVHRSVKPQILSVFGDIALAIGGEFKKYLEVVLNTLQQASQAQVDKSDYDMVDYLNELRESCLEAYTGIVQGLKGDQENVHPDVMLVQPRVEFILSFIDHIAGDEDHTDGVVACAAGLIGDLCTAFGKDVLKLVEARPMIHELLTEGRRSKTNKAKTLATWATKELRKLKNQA
#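 FRET biosensor Rango (snurportin 1 IBB between N-terminal EYFP and C-terminal Cerulean), 50 nM in PBS/1 mM DTT/0.02% Tween-20/0.1% BSA, preincubated 5 min RT with compound; 0.125 microM importin beta added, 45 min RT, CFP/YFP FRET ratio read.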
# Rango dissoc inh: qHTS Assay for Inhibitors of RanGTP induced Rango (Ran-regulated importin-beta cargo) - Importin beta complex dissociation; AID 540253, 2011; Snurportin-1 (Homo sapiens) + GTP-binding nuclear protein Ran (Homo sapiens) + Importin …; Potency, µM (doses to about 46.1 µM), for the others: top-dose activity change, negative = inhibition; Biochemical FRET Rango-importin beta, RanGTP-induced dissociation; hit rate 0.071% among 340,000; active means falling FRET ratio curve, often poorly fitted, with flat reads before Ran was added; inconclusive means other falling curves, or compound fluorescence or quenching; inactive means flat or rising ratio curve;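 further: potency means the concentration at half of the fitted maximal effect; % of control where 0% means no effect; nearly all actives have a fitted effect of over 45% in size; -100% = wells without RanGTP and RCC1; the record marks most hits as doubtful in a second field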
#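 Rango/importin beta premix (0.1/0.25 uM final), PBS + 1 mM DTT + 0.02% Tween-20 + 0.1% BSA; cpd 5 min RT; FRET pre-read; + RanGTP-RCC1 (0.6 uM Ran, 2 mM GTP, 0.2 uM RCC1); 45 min RT; FRET post-read, ex 430, em 486/530 nm.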
# miR-21 reporter: qHTS Assay for Modulators of miRNAs and/orActivators of miR-21; HeLa miR-21 FLuc reporter, luciferase, 48 h; Potency, µM (titrated, usually from 38.3 µM), for the others: at the highest dose reporter change, positive = more light; 340,000 tested, under 10 active; active = well fitted rising curve with a large enough effect; inconclusive = small, poorly fitted or top-dose-only effect; inactive = no such curve, though single readings can be large or run the other way;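 further: % of control where 0% means no effect; miR-21 action dims this reporter so a rising signal means less miR-21 action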
#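 Using DMEM plus 10% FBS, HeLa miR-21-FLuc cells are incubated with test compounds (final up to about 40uM) for 48 hours; firefly luciferase signal is then imaged following reagent-mediated lysis.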
# GLA inh pH 4.5: qHTS Assay for Inhibitors of Human alpha-Galactosidase at pH 4.5; Alpha-galactosidase A (Homo sapiens), P06280; purified enzyme, 4-MU-alpha-Gal fluorescence, pH 4.5; activity change, negative = inhibition, % at 105 µM; 230,000 tested, under 10 active; inconclusive = small, poorly fitted or top-dose-only inhibition, or a rising curve; inactive = flat fitted curve, though single readings scatter; no compound was filed as active;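 further: 0% = full activity with enzyme and -100% = basal without enzyme; dose as in the result columns while the protocol names 77 µM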
# Starred values were filed as active, the others as inactive; ? = inconclusive; nt = no result given; & = joins results of further samples. Some of the compounds tested; the hit share may differ from the screen's.
SMILES,Rango-impB inh,Rango dissoc inh,miR-21 reporter,GLA inh pH 4.5
Fc1ccc(CN(Cc2ccccc2)C(c2cccs2)c2nnnn2C2CCCCC2)cc1 (centres undefined),-2.9%,-5.7%,-8.9%,0.5
Cc1cc(Br)ccc1NC(=O)CNC(=O)CSc1n[nH]c(N)n1,2.1%,10.6%,-5.3%,-2.2
CCn1cnc2sc(C(=O)N3CCN(Cc4ccc5c(c4)OCO5)CC3)c(C)c2c1=O,nt,nt,-0.2%,3.5
CC(/C=N\NC(=O)c1ccc(C)nc1)=C\c1ccccc1,0.6%,15.4%,-58.1%,1.5
c1csc(C2=Nn3c(nnc3-c3ccncc3)SC2)c1,-1.6%,-8.1%,23.6%,1.7
O=C(NN=C1c2ccccc2-c2ccccc21)c1ccccc1,?,-8.9%,-7.4%,-1.5
O=C(CNC(=S)NC(=O)c1ccc(Cl)cc1)c1ccccc1,-0.4%,-1.1%,-10.8%,7.1
Cc1ccc2[nH]c3c(=O)n(CC(=O)NCCCN4CCN(c5ccc(F)cc5)CC4)ncc3c2c1,2.6%,-5.1%,-2.1%&-2.3%,nt
CCc1ccc(CN2CCCC(CNC(=O)c3cc(OC)cc(OC)c3)C2)cc1 (centres undefined),-1.8%,-8.9%,2.9%,nt
Cc1csc(=Nc2ccccc2)n1C,-1.4%,0.2%,-24.8%,-4.8
CCc1cccc2c(C(=O)CN3C(=O)C(=O)N(C4CCCC4)C3=O)c[nH]c12,0.9%,10.2%,nt,nt
Cc1cccc(C)c1OCC(=O)Nc1ccccc1N1CCCCC1,0.7%,1.9%,-3.1%,nt
C=CCOc1ccc(/C=N/NC(=O)CC(=O)NC2CCCCC2)cc1,-0.4%,10.7%,-3.3%,nt
CCCc1n(CC(O)COC2CCCCC2)c2ccccc2[n+]1C (centres undefined),-2.0%,-0.6%,1.6%,8.4
CC(C)(C)C(=O)N1CCC(O)(CS(=O)(=O)Cc2ccccc2)CC1,-1.8%,9.2%,-1.4%,3.6
CCCCSc1nnc(-c2cc3c(C(F)(F)F)nn(C)c3s2)n1C,-1.8%,-1.0%,8.9%,3.0
CCC(C)Sc1nnc(NC(=O)C2CCN(C(=O)c3ccco3)CC2)s1 (centres undefined),-4.2%,7.2%,2.2%,nt
COc1ccc(OC)c(S(=O)(=O)Nc2cc3c4c(c2)C(C)C(=O)N4CCC3)c1 (centres undefined),0.3%,0.0%,nt,nt
Cc1ccc2nc(Cl)c(C3CC(c4cccs4)=NN3C(=O)CCC(=O)O)cc2c1 (centres undefined),-4.2%,-8.0%,-22.9%,0.2
CCc1ccc(-c2nc(CS(=O)CC(=O)NC3CC3)c(C)o2)cc1 (centres undefined),6.3%,0.4%,-13.5%,nt

# 5 compounds from above, sorted by length of the SMILES, low to high:
SMILES,Rango-impB inh,Rango dissoc inh,miR-21 reporter,GLA inh pH 4.5
CCc1ccc(-c2nc(CS(=O)CC(=O)NC3CC3)c(C)o2)cc1 (centres undefined),6.3%,0.4%,-13.5%,nt
CCC(C)Sc1nnc(NC(=O)C2CCN(C(=O)c3ccco3)CC2)s1 (centres undefined),-4.2%,7.2%,2.2%,nt
CC(C)(C)C(=O)N1CCC(O)(CS(=O)(=O)Cc2ccccc2)CC1,-1.8%,9.2%,-1.4%,3.6
CCc1cccc2c(C(=O)CN3C(=O)C(=O)N(C4CCCC4)C3=O)c[nH]c12,0.9%,10.2%,nt,nt
CCn1cnc2sc(C(=O)N3CCN(Cc4ccc5c(c4)OCO5)CC3)c(C)c2c1=O,nt,nt,-0.2%,3.5

# Additional structures:
SMILES,Rango-impB inh,Rango dissoc inh,miR-21 reporter,GLA inh pH 4.5
CNC(=O)C1C2C=CC3(O2)C1C(=O)N(CCOC)C3C(=O)NCc1ccc(OC)cc1 (centres undefined),-0.8%,10.6%,-3.5%,2.9
O=c1c(OC2OC(CO)C(O)C(O)C2OC2OC(CO)C(O)C(O)C2O)c(-c2ccc(O)cc2)oc2cc(O)cc(O)c12 (centres undefined),?,-1.2%,-0.3%,-1.4
CCOC(=O)c1[nH]c2ccccc2c1NC(=O)C1CCCCC1,-0.3%,-8.7%,-1.4%,-3.3
CCCN(c1ccc(OCC)cc1)S(=O)(=O)c1ccc2c(c1)CCN2C(=O)CCC(=O)O,0.7%,-4.3%,-4.5%,7.6
Cc1ccc(CC(=O)Nc2cccc(S(=O)(=O)N3CCOCC3)c2)cc1,?,7.2%,-3.8%,nt
CCC(=O)c1ccc(OCC(=O)OCC(=O)N(C)CC(=O)Nc2ccc(F)cc2)cc1,-1.1%,4.7%,nt,nt
O=C(NCCc1ccc(Cl)cc1)c1cnccn1,0.1%,-9.5%,-19.1%,-1.0
NS(=O)(=O)c1ccc(CNS(=O)(=O)c2cc(C(=O)O)ccc2Cl)cc1,?,13.8%,5.2%,2.0
O=C(NCC1CCCO1)C1CCN(C(=O)c2ccc(Cl)cc2)CC1 (centres undefined),-2.0%,21.4%,-1.6%,-1.8
CC(C)(C)n1cnc(C(N)=O)c1N,-0.2%,-6.5%,-2.4%,4.0
CCCCOC(=O)c1ccc(NC(=S)NC(=O)c2c(Cl)cnn2C)cc1,-1.8%,-1.3%,0.7%,1.1
COc1cccc(N2CCN(C(=O)c3ccc(CSc4nc5ccncc5[nH]4)cc3)CC2)c1,-1.4%,-0.2%,14.1%,0.0
CN=C(C)c1c(O)c2ccccc2oc1=O,0.4%,-15.7%,-9.7%,-2.1
COc1cc2oc(=O)ccc2cc1[C@H](O)[C@@H](O)C(C)(C)O,1.3%,0.1%,nt,nt
Nc1nc(CSc2ncn(-c3ccccc3)n2)cs1,-0.7%,3.2%,-33.4%,-6.4
CC(C)(CNC(=O)c1ccc(Br)o1)N1CCOCC1,-1.7%,9.9%,-0.2%,nt
Cc1cc(-c2n[nH]c(=S)n2/N=C/c2ccc(C)s2)n[nH]1,2.6%,7.7%,-10.6%,-12.6
CC1CCN(C(=O)c2ccc(NC(=O)c3ccccc3)cc2)CC1,-2.4%,-8.3%,-5.0%,nt
NC(=O)C1CCN(CC(=O)Nc2ccccc2C(=O)NC2CC2)CC1,-1.4%,-13.8%,nt,nt
CC(NC(=O)c1ccccc1)C(=O)NC1=NCCS1 (centres undefined),-8.3%,-2.8%,-2.0%,-4.2
O=C(OCCNC(=O)c1ccc2ccccc2n1)c1ccc(F)cc1,5.6%,0.1%,-11.6%,-2.4
CC(=O)Oc1ccc(-c2cccc(C(=O)N(C)c3ccc(O)cc3)c2)cc1,-3.9%,-13.6%,-14.0%,3.2
O=C(CCCSc1nnnn1-c1cccc2ccccc12)c1ccc(F)cc1,0.0%,-0.5%,3.1%,-3.8
Cc1c(Cc2ccccc2)sc(/N=C/c2c(O)ccc3ccccc23)c1C(N)=O,?,?,9.7%,-1.2
CC(=O)c1c(O)cc(O)c(C(C)=O)c1O,-0.1%,1.2%,?,1.3
O=C(CN1CCC(C(=O)c2ccc(F)cc2)CC1)Nc1ccc(F)cc1,3.1%,15.1%,12.4%,-18.0
CCC(C)C(NC(=O)C1CCC(C)CC1)C(=O)NCc1ccccn1 (centres undefined),-1.8%,2.1%,0.9%,0.1
Cc1cc(C)c2c(CC(=O)N(CCC#N)Cc3cccnc3)coc2c1,4.1%,23.2%,1.0%,2.4
O=C(Cc1ccc(N2CCNC2=O)cc1)N1CCCC(Nc2ccc(F)c(F)c2)C1 (centres undefined),3.6%,-17.3%,15.7%,nt
Cc1ccc(NC(=O)c2c(F)cccc2Cl)cc1S(=O)(=O)N1CCOCC1,-1.1%,-1.1%,nt,nt
Cc1ccc(NC(=O)c2ccc(Cl)c(S(=O)(=O)N3CCCCC3)c2)nc1,3.9%,0.7%,nt,nt
CCCn1c(O)c(N=NC(=O)CNC(=O)c2ccncc2)c2ccccc21,1.2%,12.3%,-7.9%,nt
COc1cc(C(=O)N2CCN(c3ncnc4sc(C)c(C)c34)CC2)cc(OC)c1OC,-5.7%,14.5%,18.6%,-3.4
COC(=O)c1ccc(NC(=O)C[n+]2ccccc2)cc1,1.4%,-11.9%,-1.4%,nt
O=C(NCCc1ccco1)C(=O)NCC1OCCCN1S(=O)(=O)c1cc(F)ccc1F (centres undefined),-2.1%,-14.5%,-4.3%,nt
COc1ccc(OC(C)C(=O)N(C)Cc2nc(-c3ccc(OC)cc3)no2)cc1 (centres undefined),3.8%,-1.1%,22.1%,nt
CC(=O)N(CC1CCCO1)c1nnc(-c2ccccn2)s1 (centres undefined),0.6%,9.3%,-36.1%,-5.1
CC(C)CCN1NC2(CCC(C)CC2)NC1=S (centres undefined),4.8%,-3.8%,-7.3%,15.5
O=C(Nc1ccccc1C(=O)N1CCCCC1)c1cc(F)c(F)cc1Cl,3.6%,-6.0%,0.1%,nt
CCOc1ccc2nc(NCCO)[nH]c2c1,-1.8%,-12.0%,-5.9%,-1.1
COCCn1c(=NC(=O)C(C)(C)C)sc2cc([N+](=O)[O-])ccc21,-7.5%,33.9%,-26.9%,0.8
Cc1ccnc(NC(=O)CNC(=O)c2sc3ccccc3c2Cl)c1,-0.4%,-1.6%,nt,nt
Cc1ccc(NC(=O)CNS(=O)(=O)c2ccc(F)cc2)cc1C,0.5%,10.0%,-2.3%,2.2
COc1cccc(NC(=O)CCS(=O)(=O)c2ccc3c(c2)oc(=O)n3C)c1,-3.5%,18.9%,-5.2%&-0.8%,nt
CCc1ccc2nc3nc(C)cc(C)c3c(N)c2c1,?,?,17.5%,3.8
N=C1/C(=C\c2ccc(-c3ccc(C(=O)O)cc3)o2)C(=O)N=C2SC=C(c3ccccc3)N12,?,?,-1.7%,-16.4
O=C1N(Cc2cccnc2)C[C@@H]2C[C@@H](c3cccc(C(F)(F)F)c3)N3CCC[C@@]123,-3.1%,-4.7%,1.0%,4.0
CCOC(=O)c1csc(NC(=O)CSc2nnnn2-c2ccc(OC)c(OC)c2)n1,1.8%,-10.6%,-7.7%,1.8
Cc1cccc(NC(=O)C2CC(=O)N(Cc3ccccc3)C2)n1 (centres undefined),12.3%,-20.8%,nt,nt
CN(Cc1ccccn1)Cc1nc(-c2ccc(Cl)cc2)no1,-3.8%,-20.8%,-25.4%,-26.4
CSC1=N/C(=C\c2ccc(Cl)cc2)C(=O)N1N(C)C,5.8%,0.9%,-14.6%,-9.1
CCCCC(=O)Nc1ccc(NC(=O)c2ccc3c(c2)OCO3)cc1OC,-0.2%,8.8%,-7.2%,-1.4
COC(=O)c1ccc(N2CCOCC2)c(NC(=O)c2ccco2)c1,-2.8%,-14.7%,-0.2%,nt
O=C(NCc1ccc(F)cc1)Nc1cccc([N+](=O)[O-])c1,0.4%,-3.1%,-15.3%,5.8
O=c1oc(CCCO)cc2ccccc12,1.1%,-14.0%,nt,nt
O=C(NCc1cccnc1)c1ccccc1-c1ccccc1,2.9%,1.7%,4.1%,2.4
NC(=O)NC(=O)CSc1cccc(C(F)(F)F)c1,-0.5%,5.0%,-13.0%,-4.9
CCOc1ccc(Cn2nnc(C(=O)NCc3ccccc3)c2N)cc1,?,-14.7%,-10.8%,3.8
CC(C)n1cc(CN2CCCC(CNS(=O)(=O)c3cccc4cccnc34)C2)cn1 (centres undefined),-1.4%,-26.3%,-0.3%,nt
NS(=O)(=O)c1ccc(CCNC(=O)c2ccc(Cl)c(S(=O)(=O)NCc3ccco3)c2)cc1,-1.1%,-6.3%,nt,nt
Oc1ccccc1CNCC12CC3CC(CC(C3)C1)C2,-2.5%,-7.7%,-3.4%,nt
Cc1ccc(NC(=O)C(Nc2cccc(C)c2)c2ccccc2)cc1 (centres undefined),-2.7%,-4.9%,-19.2%,-13.4
COc1ccc(-c2ccc(-c3noc(-c4cccc(OC)c4)n3)c(OC)n2)cc1,?,-16.5%,-2.1%,8.9

# Assay outcomes deposited in PubChem by National Center for Advancing Translational Sciences (NCATS).
